Vaccinia Venus: inhibitors of vaccinia virus (Venus reporter); Vaccinia virus Venus reporter expression, fluorescence; actives 0.46% (n = 330,000); Potency, µM (titrated, usually from 36.5 µM), without a hit: at the top dose activity change, negative = inhibition, actives largely listed as inhibitors; active means well fitted inhibition curve with a large enough effect; inconclusive means small, poorly fitted or top-dose-only effect; inactive means no such curve, though single readings can be large or run the other way; tested in A549 cells; also: nearly all actives have a fitted effect of over 30% in size; inactives centre near -10
VACV mCherry inh: inhibitors of vaccinia virus infection (mCherry reporter signal); Vaccinia virus mCherry reporter infection, fluorescence; about a quarter of the inactives have no number; Potency, µM (top dose mostly 36.5 µM), inactives show top-dose activity change, negative = inhibition, actives largely listed as inhibitors; actives 0.63% (n = 310,000); AID 720579; active = well fitted inhibition curve with a large enough effect; inconclusive = small, poorly fitted or top-dose-only effect; inactive = no such curve, though single readings can be large or run the other way; tested in A549 cells; also: nearly all actives have a fitted effect of over 35% in size; inactives centre near -10
* marks the source's active call; other numbers are inactive results; i = inactive; u = inconclusive; x = not tested or not shown; [ ] = remark or other dose. % is scaled to controls: 0 for no effect and ±100 for the full control effect; potency is read from the fitted curve at half-maximal effect.

SMILES	Vaccinia Venus	VACV mCherry inh
CC(C)c1ccccc1NC(=O)Nc1nc(C(N)Cc2ccc(C(F)(F)F)cc2)cs1 (configuration not stated)	u	u
Cn1nnnc1SCCCNCc1cc(Cl)ccc1OCc1ccccc1F	-26%	-26%
COc1ccc(CNC(=O)c2c(-c3cc(Cl)c(OC)c(Cl)c3)noc2C)cc1	-10%	i
Cc1c(-c2nnc(-c3ccc(C(F)(F)F)cc3)o2)cnn1-c1ccccc1	-11%	x
Cc1ccc(OCC(=O)NS(=O)(=O)c2ccc(Cl)cc2)cc1	-15%	0%
COc1ccc(-c2nc(N)n[nH]2)cc1	-5%	x
Fc1ccc(C(c2nnnn2Cc2cccs2)N2CCN(C3CCCCC3)CC2)cc1 (configuration not stated)	-21%	-29%
COc1cc(OC)c(OC)cc1/C=N/NC(=O)C[n+]1ccccc1	-12%	i
Cc1ccc(COc2ccsc2C(=O)NN)cc1	-2%	-2%
COc1ccc(-c2csc(NC(=O)c3c(OC)cccc3OC)n2)cc1	-16%	u

Among those listed so far, 2 contain a CF3 group.
SMILES	Vaccinia Venus	VACV mCherry inh
CC(C)c1ccccc1NC(=O)Nc1nc(C(N)Cc2ccc(C(F)(F)F)cc2)cs1 (configuration not stated)	u	u
Cc1c(-c2nnc(-c3ccc(C(F)(F)F)cc3)o2)cnn1-c1ccccc1	-11%	x

New compounds follow.
SMILES	Vaccinia Venus	VACV mCherry inh
Cc1ccc(-c2nn(-c3ccccc3)cc2C=O)o1	-13%	i
Cc1cc(C(=O)c2ccccc2)cc(C)c1O	-18%	-2%
O=C(C1CCN(S(=O)(=O)c2ccccc2)CC1)N1CCN(Cc2ccccc2)CC1	-23%	-1%
Cc1ccsc1C(C(=O)NC1CCCCC1)N(C(=O)Cc1cccs1)C1CC1 (configuration not stated)	-6%	-7%
CC(C)Cn1c(N)c(C(=O)COC(=O)c2ccc(O)cc2O)c(=O)n(C)c1=O	-21%	-10%
NC1(C#Cc2ccc3oc(=O)c(-n4cc(C5(O)CCCCC5)nn4)cc3c2)CCCCC1	-10%	i
CC(C)C(=O)Nc1ccc(S(=O)(=O)Nc2ccccn2)cc1	-4%	-22%
CC1CCN(CC[S-])CC1.O.O.[Cl][Pt]	u	-14%
Cn1c(=O)c2c(nc(N3CCOCC3)n2Cc2ccccc2F)n(C)c1=O	-5%	-4%
COc1ccc(CCNS(=O)(=O)c2ccc3c(c2)NC(=O)CS3)cc1OC	6%[7.34 µM]	-5%[7.34 µM]

6 neighbouring compounds from above, for reference:
SMILES	Vaccinia Venus	VACV mCherry inh
Cc1ccc(-c2nn(-c3ccccc3)cc2C=O)o1	-13%	i
Cc1cc(C(=O)c2ccccc2)cc(C)c1O	-18%	-2%
O=C(C1CCN(S(=O)(=O)c2ccccc2)CC1)N1CCN(Cc2ccccc2)CC1	-23%	-1%
Cc1ccsc1C(C(=O)NC1CCCCC1)N(C(=O)Cc1cccs1)C1CC1 (configuration not stated)	-6%	-7%
CC(C)Cn1c(N)c(C(=O)COC(=O)c2ccc(O)cc2O)c(=O)n(C)c1=O	-21%	-10%
NC1(C#Cc2ccc3oc(=O)c(-n4cc(C5(O)CCCCC5)nn4)cc3c2)CCCCC1	-10%	i

By substructure: those above containing two or more sulfur atoms.
SMILES	Vaccinia Venus	VACV mCherry inh
Cc1ccsc1C(C(=O)NC1CCCCC1)N(C(=O)Cc1cccs1)C1CC1 (configuration not stated)	-6%	-7%
COc1ccc(CCNS(=O)(=O)c2ccc3c(c2)NC(=O)CS3)cc1OC	6%[7.34 µM]	-5%[7.34 µM]

New compounds follow.
SMILES	Vaccinia Venus	VACV mCherry inh
CCCCOc1ccc(C(=O)NCC(=O)N2CCN(Cc3ccc4c(c3)OCO4)CC2)cc1	-15%	-9%
CCO[C@@H]1OC(C(=O)N2CCN(Cc3ccc4c(c3)OCO4)CC2)=C[C@H](c2coc3ccccc3c2=O)[C@H]1CCCO	-13%	i
Cn1c(CCNC(=O)c2ccco2)nc2cc(NC(=O)c3ccccc3)ccc21	-6%	-14%
CCn1nnc(NC(=O)c2ccc(Br)o2)n1	-2%	0%
O=C(COC(=O)c1nc(Cl)ccc1Cl)NC(=O)c1ccccc1	-6%	-14%
CC(NC(=O)COC(=O)c1ccc([N+](=O)[O-])o1)c1ccccc1 (configuration not stated)	-6%	-19%
COc1cc(C(=S)N2CCOCC2)cc(OC)c1OC(=O)Cc1ccc(F)cc1	4%	-6%
CCCc1c(O)nc(SCCN(CC)CC)[nH]c1=O	-16%	-15%
COc1ccc(C)cc1S(=O)(=O)Nc1ccc(F)cc1	-3%	-14%
CCCCOc1ccccc1C(=O)NNC(=S)NC(=O)c1ccccc1[N+](=O)[O-]	-20%	u
